gsp antag – antagonizes gsp, the McCune-Albright syndrome mutation. 0.4% of 340,000 active. Potency, µM (series often up to 76.9 µM), for inactives: at the top dose activity change, negative = inhibition, usual class: inhibitors. gsp-mutant cells, cAMP HTRF, 30 min; control for the full effect not named in the record; active = falling curve of any shape with a large fitted effect; inconclusive = falling curve, mostly with a smaller effect; inactive = flat or rising curve; cell line not stated here;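 note: intracellular cAMP measured with PDE inhibitor Ro 20-1724 present during compound exposure; potency is the fitted concentration of half-maximal effect; % is set by controls: 0 for no effect and ±100 for the full control effect; nearly all actives have a fitted effect of over 65% in size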
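Measurement of cellular cAMP by homogeneous time-resolved fluorescence following a 30 min compound exposure at 37C. The PDE inhibitor […] was present throughout; the assay buffer was DPBS with 0.05% BSA and 0.005% Tween 20.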
gsp agonist – activates gsp, the McCune-Albright syndrome mutation. gsp mutant cells, cAMP HTRF, 30 min; control for the full effect not named in the record. Potency, µM (highest dose often 76.9 µM), inactives show top-dose activation (cAMP increase), actives largely listed as activators. 0.13% of 340,000 active. AID 624287; active = well fitted activation curve with a large enough effect; inconclusive = small, poorly fitted or top-dose-only effect, or another doubt; inactive = no such curve, though single readings can be large or run the other way; cell line not stated here;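 note: phosphodiesterase inhibitor Ro 20-1724 added with compounds to block cAMP breakdown; potency is the fitted concentration of half-maximal effect; nearly all actives have a fitted effect of over 60% in size; about a fifth of the inactives were tested at one dose only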
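Cells in DMEM/10% FBS with G418 were pretreated with compounds in DMSO plus […] (300 uM stock) for 30 min at 37C. cAMP was measured by HTRF (cAMP-d2 plus anti-cAMP antibody-K) after 30 min at room temperature.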
ClpP mod – qHTS Assay for Activators of ClpP. ATP-dependent Clp protease proteolytic subunit (Bacillus subtilis (strain 168)), P80244. purified B. subtilis ClpP, FRET peptide cleavage, 20 min. Potency, µM (titrated, usually from 57.5 µM), for the others: at the highest dose activity change, negative = active. AID 651965, 2013. 1.9% of 340,000 active; active = well fitted falling curve with a large enough effect; inconclusive = small, poorly fitted or top-dose-only effect; inactive = no such curve, though single readings can be large or run the other way; note: potency is the fitted concentration of half-maximal effect; the source files actives as falling curves though it sought activators and does not explain the sign; nearly all actives have a fitted effect of over 65% in size; many hits overshoot -100%
Target sequence (P80244 whole entry, looked up): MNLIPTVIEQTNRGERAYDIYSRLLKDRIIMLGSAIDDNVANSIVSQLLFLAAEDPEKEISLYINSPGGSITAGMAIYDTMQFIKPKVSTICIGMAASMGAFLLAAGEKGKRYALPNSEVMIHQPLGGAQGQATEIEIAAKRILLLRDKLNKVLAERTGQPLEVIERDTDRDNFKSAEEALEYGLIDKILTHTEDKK
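Purified B. subtilis ClpP, 10 microg/mL final in Tris/HCl pH8 with KCl, BSA, glycerol and Tween-20, cleaved an Abz/nitrotyrosine-quenched decapeptide. Fluorescence (ex 320, em 430) was read at 0 and 20 min at room temperature. Delta was normalized to 5.8 microM ADEP and DMSO/no-enzyme controls.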
Menin-MLL FL inh – inhibitors of human menin-MLL interaction, wild-type MLL peptide; Fluorescence polarization, fluorescein-MLL peptide displacement from menin; FP activity change, % at 61.4 µM; AID 1766; 290,000 tested, under 10 active; inconclusive = falling polarisation curve, or a change in total fluorescence; inactive = total fluorescence flat and polarisation flat or rising; no compound was filed as active; the % refers to the polarisation; negative = inhibition;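 note: % of control where 0% means no effect; inhibitors lower the polarisation; unlabelled MLL peptide was the positive control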
D2 agonist – agonists of human D2 dopamine receptor (beta-arrestin); P14416; DiscoveRx PathHunter D2 beta-arrestin, luminescence, 90 min; 100% = 57 uM dopamine signal; activation, % (no concentration beside the values); 0.084% of 360,000 active; in the data active = activation above about 40%; inconclusive = about 15% to 40%; inactive = below about 15%; note: compound concentration not given in the record; the text of the record calls up to 30% inactive
Target sequence (P14416 whole entry, looked up): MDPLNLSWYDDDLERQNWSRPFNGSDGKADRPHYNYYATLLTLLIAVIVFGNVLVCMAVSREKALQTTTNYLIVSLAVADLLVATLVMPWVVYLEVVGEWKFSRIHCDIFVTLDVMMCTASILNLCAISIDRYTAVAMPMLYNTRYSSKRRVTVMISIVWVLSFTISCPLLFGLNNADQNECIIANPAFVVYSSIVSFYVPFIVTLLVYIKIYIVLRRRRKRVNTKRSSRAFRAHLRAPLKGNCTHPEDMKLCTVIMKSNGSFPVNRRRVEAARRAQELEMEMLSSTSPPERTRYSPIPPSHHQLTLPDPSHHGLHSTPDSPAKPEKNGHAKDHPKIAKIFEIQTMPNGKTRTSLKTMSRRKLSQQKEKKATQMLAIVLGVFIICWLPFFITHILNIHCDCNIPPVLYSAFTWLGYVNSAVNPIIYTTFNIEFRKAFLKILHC
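Agonist mode: compounds alone added to overnight-plated D2 PathHunter cells for 90 min at 37 C, with 57 uM final dopamine (EC100) defining full response. Beta-arrestin recruitment detected by chemiluminescent reagent, read after 1 h at ambient temperature.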
Sfp inh – inhibitors of Bacillus subtilis Sfp phosphopantetheinyl transferase; Q9F4F7; Biochemical Sfp PPTase activity, qHTS; Potency, µM, for the others: max response, negative = inhibition, usual class: inhibitors; 3.5% of 310,000 active; active = well fitted inhibition curve with a large enough effect; inconclusive = small, poorly fitted or top-dose-only effect, or another doubt; inactive = no such curve, though single readings can be large or run the other way;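 note: the enzyme is Sfp with the accession as filed and its product quenches rhodamine fluorescence; potency is the fitted concentration of half-maximal effect; 0% = enzyme reaction without inhibitor and -100% = no enzyme wells; top concentration of the series not given in the record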
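With Hepes-Na pH 7.6 buffer containing 10 mM MgCl2, Sfp (15 nM) modified BHQ-2-YbbR (12.5 uM) using rhodamine-CoA (5 uM). Two reads 30 minutes apart at 525/598 nm yielded each well's rate.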
PINK1 modulator – PINK1 expression modulation; PINK1 immunofluorescence, high-content cytometry, 24 h; Potency, µM (series often up to 76.6 µM), for the others: top-dose activation (PINK1 increase), actives largely listed as activators; 0.2% of 410,000 active; active = well fitted activation curve with a large enough effect; inconclusive = small, poorly fitted or top-dose-only effect; inactive = flat fitted curve, though single readings scatter; cell line not stated here;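 note: potency is the fitted concentration of half-maximal effect; % of control where 0% means no effect; nearly all actives have a fitted effect of over 65% in size; a mitochondrial uncoupler was the plate control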
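Stable cell line treated 24 h with compounds at 5 concentrations (CCCP controls), then fixed and immunostained for PINK1 plus nuclear and cell stains; PINK1 immunofluorescence quantified by laser-scanning microplate cytometry.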
The depositor's hits bear a star; u = inconclusive; x = not tested or not shown; [ ] = dose if it differs, or a comment.

SMILES | gsp antag | gsp agonist | ClpP mod | Menin-MLL FL inh | D2 agonist | Sfp inh | PINK1 modulator
Cn1c(Cc2ccccc2)nnc1SCC(=O)NC1CCCCC1 | -8% | u | -2.7% | 4.5 | -0.4 | 19% | 2.0%
Cn1c(=O)c2c(ncn2CC(=O)OCC(=O)Nc2ccccc2Cl)n(C)c1=O | 14% | 4% | -2.7% | 4.2 | -0.7 | 6% | -0.2%
CCOC(=O)c1csc(NC(C)=O)n1 | 9% | 3% | x | -0.2 | 1.0 | 1% | -0.7%
FC(F)(F)c1cc(CCN2CCNC[C@@H]2Cc2ccccc2)cc(C(F)(F)F)c1 | 1% | x | -1.0% | x | -1.8 | x | -0.8%
CCC(CO)NCc1ccc(OCC(O)c2ccccc2)c(OC)c1 (configuration not stated) | 12% | -20% | -1.4% | 2.0 | -0.9 | 8% | -0.5%
CCc1nnc(SCC(=O)NC2CC2)n1CC | 11% | u | -2.1% | -2.3 | -3.9 | 15% | -1.7%
Cc1ccc(-c2noc(CN(C)C(=O)c3ccoc3C)n2)cc1 | 4% | -10% | x | -4.4 | -2.3 | 11% | -2.3%
CCCCC(=O)NC(c1ccccc1)c1ccc2cccnc2c1O (configuration not stated) | 0% | -17% | x | 0.4 | -1.4 | 19% | 1.3%
O=CN1CCN(C(=S)NC(=O)c2ccc(Cl)cc2)CC1 | 4% | -6% | 1.4% | -0.4 | 2.0 | 8% | 0.4%
COc1cc(Br)cc2cc(C(=O)NCC3CCCO3)c(=O)oc12 (configuration not stated) | 13% | 14% | -0.1% | 1.1 | -1.7 | 3% | -1.3%
COC(=O)CCCNC(=O)OCc1ccc([N+](=O)[O-])cc1 | 13% | 2% | 0.5% | 4.0 | 0.3 | 17% | 0.4%
CCOc1ccc(S(=O)(=O)N(CC)CC)cc1NC(=O)c1ccc(N2CCCC2=O)cc1 | -3% | 2%[15.4 µM] | -0.8% | x | 4.8 | 11% | 4.1%
COC(=O)c1ccc(C2C(C(=O)c3cc4ccccc4o3)=C(O)C(=O)N2CCCN(C)C)cc1 (configuration not stated) | 17% | u | -1.1% | 4.9 | -1.4 | 17% | -1.3%
CCC1CCC(NC(=O)Nc2cccc(OC)c2)CC1 (configuration not stated) | -10% | 13% | x | -0.3 | -3.0 | 4% | 0.9%
Cc1ccc(C(=O)C(OC(=O)CNC(=O)c2ccc(Cl)cc2)c2ccccc2)cc1 (configuration not stated) | 1% | -32%[inhibitor] | 2.0% | -0.3 | -2.9 | 5% | x
O=C(O)Cc1ccc(C(=O)c2ccccc2F)s1 | 5% | 6%[15.4 µM] | 1.3% | u | -3.4 | 10% | -0.4%
COc1ccc(/C=N/Nc2cc(C)nc(N3CCOCC3)n2)c(OC)c1 | 0% | -23%[15.4 µM] | x | 2.6 | -5.1 | 8% | 8.5%
Cc1cccc(C)c1NC(=O)Cn1c(=O)n(CCCC(=O)NCc2ccco2)c(=O)c2sccc21 | -6% | 36% | -0.7% | 6.3 | -3.2 | u | 8.5%[38.3 µM]
Cc1nn(Cc2cccc(C(=O)NCC(C)C)c2)c(C)c1Br | -21% | 19% | -3.1% | 0.1 | 0.7 | 9% | -0.6%
Cc1ccc(S(=O)(=O)NC(=O)C2(C)CCN2C(=O)CCc2ccc(Cl)cc2Cl)cc1 (configuration not stated) | x | x | -1.0% | x | -2.6 | x | 0.9%
COc1ccc2[nH]c3c(Cl)ncnc3c2c1 | 19% | 9% | -0.3% | 3.8 | 1.2 | -1% | 4.8%
CCSC1=C(C#N)C(c2ccc(OC)c(OC)c2)CC(=O)N1 (configuration not stated) | -5% | -22% | 1.4% | -0.3 | -0.7 | 16% | 3.3%
Fc1ccc(C2CCCN2Cc2nc(Cc3ccccc3F)no2)cc1 (configuration not stated) | 8% | -10% | -0.4% | 2.2 | -1.8 | 3% | 1.9%
CCCCCCCCNS(=O)(=O)CCNCc1ccccc1 | -1% | x | 0.0% | x | -1.7 | x | 5.3%
CCN(CC)C(=O)CN(c1cc(Cl)ccc1OC)S(=O)(=O)c1ccc(C)c([N+](=O)[O-])c1 | -1% | u | 2.0% | 4.0 | -6.4 | -2% | 8.5%

(continued)
SMILES | gsp antag | gsp agonist | ClpP mod | Menin-MLL FL inh | D2 agonist | Sfp inh | PINK1 modulator
COc1ccc(N=Cc2c(O)c3ccccc3n2C(C)=O)cc1 | -27% | 17% | 3.5% | u | -5.2 | 18µM* | 25µM*
COc1ccc(OC)c(NC(=O)Nc2nc(C(C)N)cs2)c1 (configuration not stated) | x | x | -0.3% | x | -2.4 | x | -0.5%
O=C1CC(c2ccccc2)CC(O)=C1C=Nc1ccc(Cl)cc1 (configuration not stated) | -19% | 1% | 60% | 2.3 | -8.0 | 3% | 2.2%
CCN(CC)c1ccc(/C=C(/C#N)c2nc3ccc(C)cc3[nH]2)c(OC(C)C)c1 | 4% | -30% | -0.8% | u | -6.0 | -3% | u
CC[C@@H](C)[C@@H]1CN([C@@H](C)CN2CCC[C@H]2CN2C(N)=NC[C@H]2CC(C)C)C(=N)N1CCc1ccc(Cl)c(Cl)c1 | 8% | x | -2.1% | x | -2.0 | x | 0.9%
N#Cc1ccccc1S(=O)(=O)N1CCN(Cc2c(O)ccc3ccccc23)CC1 | -4% | -11% | 27% | x | 13 | x | -0.3%
Cc1ccc(NC(=O)COc2ccc3oc4c(c3c2)CCCC4)nc1 | 5% | 15% | -1.3% | -0.7 | 5.3 | 3% | 17%
O=[N+]([O-])c1cccc(-c2nc(-c3cccs3)c(-c3cccs3)[nH]2)c1 | -33% | 1% | -14% | 4.2 | 1.0 | 27% | 0.2%
COC(=O)CNC(=O)C1CCCN1C(=O)CNC(=O)OCc1ccccc1 (configuration not stated) | -1% | -56%[inhibitor] | x | -1.6 | -3.6 | 3% | 0.8%
Cc1ccc(SCC(=O)NNC(=O)CNC(=O)c2ccc(Br)cc2)cc1 | 9% | 32% | x | x | -3.1 | x | 8.0%
CCC(C)c1ccc(NC(=S)NCCn2cc(Br)cn2)cc1 (configuration not stated) | -7% | 1% | x | -0.4 | -2.9 | 12% | 24%
COC(=O)CNc1nc(Cl)nc(N2CCC(C)CC2)n1 | -3% | -11% | 0.4% | 3.1 | -5.2 | -2% | 1.2%
CC(C)(C)C(=O)NC(=S)Nc1ccc(Cc2ccncc2)cc1 | -27% | -6%[15.4 µM] | -1.4% | -1.7 | 5.4 | -2% | -0.7%
CC(C(=O)NCc1ccccc1)N1C(=O)c2ccccc2C1=O (configuration not stated) | 4% | 6%[15.4 µM] | 1.1% | -0.5 | 0.3 | 6% | -0.2%
COc1ccc2oc(C(=O)OC(C)C(=O)N3C(C)CCCC3C)c(C)c2c1 (configuration not stated) | u | -11% | x | x | -0.8 | x | -0.5%
Cc1nc(-c2cccnc2)sc1C(=O)Nc1ccc(F)cc1F | 4% | 19% | 0.2% | 0.8 | 1.3 | 11% | x
COc1ccc(NC(=O)CN2CCN(Cc3ccc4c(c3)OCO4)CC2)cc1OC | 15% | -9% | -3.7% | 2.1 | 2.5 | 56µM* | 0.4%
CCn1c(SCC(=O)NCc2ccc3c(c2)OCO3)nnc1-c1cccs1 | -4% | 12% | -3.6% | 2.9 | -3.3 | 18% | 2.8%[38.3 µM]
S=C(Nc1ccccc1)Nc1ccc(Cl)cn1 | -2% | 1%[15.4 µM] | x | 0.9 | -5.9 | 9% | 4.5%
COc1ccc(S(=O)(=O)N(CCc2ccccc2)CC(=O)NC(C)C)cc1 | -5% | 24% | -0.2% | 0.4 | -4.0 | 8% | 5.3%[38.3 µM]
Cc1nc2ccc(NC(=O)NCCCO)cc2s1 | 14% | 30% | -8.9% | 1.4 | -2.9 | 4% | 3.2%
Cn1c(=O)[nH]c(=O)c2c1nc(Br)n2CCSc1nc2ccccc2o1 | -13% | u | -1.2% | x | -3.0 | 5% | -2.3%[38.3 µM]
NC(Cc1ccc(F)cc1)c1csc(NC(=O)NC(c2ccccc2)c2ccccc2)n1 (configuration not stated) | x | x | -1.2% | x | u | x | -1.2%
Cc1cccn2c(CNC3CCCc4ccccc43)c(C(=O)N3CCCCC3)nc12 (configuration not stated) | 0% | -59%[inhibitor] | -5.4% | -4.4 | -10 | 5% | -0.5%
COc1ccc(NC(=O)CSCC(=O)Nc2ccc(S(=O)(=O)N3CCOCC3)cc2)cc1 | -3% | 5% | -0.1% | x | 2.4 | x | 3.4%

Looked up by compound from the entries so far, 2 records:
SMILES | gsp antag | gsp agonist | ClpP mod | Menin-MLL FL inh | D2 agonist | Sfp inh | PINK1 modulator
CC[C@@H](C)[C@@H]1CN([C@@H](C)CN2CCC[C@H]2CN2C(N)=NC[C@H]2CC(C)C)C(=N)N1CCc1ccc(Cl)c(Cl)c1 | 8% | x | -2.1% | x | -2.0 | x | 0.9%
COc1ccc(NC(=O)CSCC(=O)Nc2ccc(S(=O)(=O)N3CCOCC3)cc2)cc1 | -3% | 5% | -0.1% | x | 2.4 | x | 3.4%

New compounds follow
SMILES | gsp antag | gsp agonist | ClpP mod | Menin-MLL FL inh | D2 agonist | Sfp inh | PINK1 modulator
Cn1cc(CN2CCCC(CO)(Cc3ccccc3)C2)c2ccccc21 (configuration not stated) | 10% | 15%[15.4 µM] | x | 0.9 | -1.4 | 2% | 1.5%
CCc1nnc(NC(=O)CSc2nnc(CNC(=O)c3cc(OC)c(OC)c(OC)c3)o2)s1 | -5% | 3% | -2.7% | -2.7 | -3.7 | -6% | 1.1%
CCCCNC(=S)Nc1ccc([N+](=O)[O-])cc1 | -13% | -6% | -0.3% | 3.7 | 0.1 | 9% | u
COc1ccc(S(=O)(=O)NCc2cccnc2)cc1OC | 8% | -27% | x | -0.9 | 0.1 | 15% | -1.8%
Cc1ccsc1/C=C1\Oc2cc(OCC(=O)c3ccccc3)ccc2C1=O | 12% | -3% | -0.4% | -0.1 | -4.9 | 19% | 4.3%
O=C(Nc1cccc(F)c1)N1CC[C@@]2(CCCN(C(=O)c3ccncc3)C2)C1 | x | x | x | 1.6 | x | 14% | -0.9%

From PubChem BioAssay
